Source: PubChem BioAssay
Vaccinia mCherry = qHTS for Stage-Specific Inhibitors of Vaccinia Orthopoxvirus: mCherry Reporter Primary qHTS | Vaccinia virus mCherry reporter infection, fluorescence; about a quarter of the inactives have no number | Potency, µM (doses to about 36.5 µM), inactives show at the highest dose activity change, negative = inhibition, most hits filed as inhibitors | 310,000 compounds, 0.63% hits; active = well fitted inhibition curve with a large enough effect; inconclusive = small, poorly fitted or top-dose-only effect; inactive = no such curve, though single readings can be large or run the other way; tested in A549 cells; note: nearly all actives have a fitted effect of over 35% in size; inactives centre near -10
VACV Venus inh = qHTS for Stage-Specific Inhibitors of Vaccinia Orthopoxvirus: Venus Reporter Primary qHTS; Vaccinia virus Venus reporter expression, fluorescence; Potency, µM (top dose mostly 36.5 µM), without a hit: at the top dose activity change, negative = inhibition, most hits filed as inhibitors; 330,000 compounds, 0.46% hits; AID 720580, 2013; active means well fitted inhibition curve with a large enough effect; inconclusive means small, poorly fitted or top-dose-only effect; inactive means no such curve, though single readings can be large or run the other way; tested in A549 cells; note: nearly all actives have a fitted effect of over 30% in size; inactives centre near -10
* = called active by the depositor; i = inactive; ? = inconclusive; / = not tested or not shown; & = joins results of further samples; [ ] = another dose, or the depositor's remark. % is set by controls: 0 for no effect and ±100 for the full control effect; potency is the fitted concentration of half-maximal effect.

SMILES	Vaccinia mCherry	VACV Venus inh
CC(C)(C)CC(C)(C)N=C1Nc2ccc([N+](=O)[O-])cc2N[C@]12C[C@H]1CCCC(=O)N3CC[C@@H](C2)[C@@H]13	i	-9%
COc1ccc2c(c1OC)C(=O)N(c1ccccc1)C2=O	-3%	-13%
O=C(Nc1cccc(C(F)(F)F)c1)Nc1nnc(N2CCCCC2)s1	-16%	-17%
Cn1c(=O)c2c(nc(NCc3ccco3)n2CC(O)COc2ccccc2)n(C)c1=O (stereo not drawn)	7%	-23%
Cc1c(Cl)c([N+](=O)[O-])nn1CC(=O)N1CCN(Cc2ccccc2)CC1	i	-15%
Cc1cc(C=C(C#N)C#N)c(C)n1-c1ccccc1	3%	-3%
c1ccc(C2N3CCCN23)cc1 (stereo not drawn)	-6%	-6%
CN1CCN(C(=O)c2cc3c(=O)n4ccccc4nc3s2)CC1	-8%	9%
CN1CCN(C(=O)CN(C2CCCCC2)S(=O)(=O)c2ccccc2)CC1	18%	4%
CCCCOCCCNC(=O)C[C@@H]1C[C@@]2(C(=O)OC)CC(C)(C)CC=C2N(CCc2ccc(OC)c(OC)c2)C1=O	i	?
FC(F)(F)c1nnc(-c2ccccc2)nc1Oc1ccc(Cl)cc1Cl	/	-13%
CN(C(=O)c1cccc(NC(=O)Cc2ccc(NC(=O)C3CCCN(S(=O)(=O)c4cccc([N+](=O)[O-])c4)C3)cc2)c1)C1CCCC1 (stereo not drawn)	-18%	-20%
O=C(NCc1ccccn1)c1nc(Cn2ccc([N+](=O)[O-])n2)no1	-2%	-4%
COc1cccc(-c2cccc(NC(=O)C3CCN(Cc4cccc(C)n4)CC3)c2)c1	i	-7%
CC(=O)c1cccc(N(C(=O)c2csnn2)C(C(=O)NC2CCCC2)c2ccccc2)c1 (stereo not drawn)	-14%	7%
O=S(=O)(NCc1ccc(Cl)cc1Cl)c1ccc(N2CCOCC2)nc1	-2%	6%
CN(C(=O)c1cccc(NC(=O)Cc2ccc(NC(=O)C3CCN(C(=O)C4CC4)CC3)cc2)c1)C1CC1	-1%	1%
COc1ccc(-c2n[nH]c3c2C(c2ccccn2)N(C)C3=O)cc1 (stereo not drawn)	-5%	-4%
CCn1c(COc2ccc(Cl)cc2Cl)nc2ccccc21	1%	-4%
COc1ccc(C(=O)NCC(=O)OCCOc2ccc(Cl)cc2)cc1OC	i	-7%
CC(=O)NNc1cc(N2CCOCC2)nc(N2CCOCC2)n1	8%	-8%
COc1ccc(CCNS(=O)(=O)c2ccc3[nH]c(=O)[nH]c3c2)cc1	i	1%
CCOC(=O)c1cc(-c2ccc(C)o2)n[nH]1	i	-1%
COCCn1nnnc1C(c1cc2cc(C)cc(C)c2[nH]c1=O)N1CCN(c2ccccc2F)CC1 (stereo not drawn)	-18%	-6%
Nn1c(-c2ccccc2)cc(-c2ccccc2)cc1=O	i	-21%
Cc1ccc(-n2c(CCC(=O)O)ccc2-c2cccs2)cc1	-9%	2%
COc1ccc(-c2noc(CCC(=O)N3CCN(c4ccccc4)CC3)n2)cc1	-6%	-4%
COC(=O)c1ccc(CO/N=C/c2cccc([N+](=O)[O-])c2)cc1	-13%	-1%
CC(C)c1ccc(OCC(=O)NCc2ccccc2)cc1	i	-1%
COc1cccc(OC)c1OCCOc1ccccc1OC(C)C	/	8%

Filtered by structure, the entries above with an aryl methoxy group.
SMILES	Vaccinia mCherry	VACV Venus inh
COc1ccc2c(c1OC)C(=O)N(c1ccccc1)C2=O	-3%	-13%
CCCCOCCCNC(=O)C[C@@H]1C[C@@]2(C(=O)OC)CC(C)(C)CC=C2N(CCc2ccc(OC)c(OC)c2)C1=O	i	?
COc1cccc(-c2cccc(NC(=O)C3CCN(Cc4cccc(C)n4)CC3)c2)c1	i	-7%
COc1ccc(-c2n[nH]c3c2C(c2ccccn2)N(C)C3=O)cc1 (stereo not drawn)	-5%	-4%
COc1ccc(C(=O)NCC(=O)OCCOc2ccc(Cl)cc2)cc1OC	i	-7%
COc1ccc(CCNS(=O)(=O)c2ccc3[nH]c(=O)[nH]c3c2)cc1	i	1%
COc1ccc(-c2noc(CCC(=O)N3CCN(c4ccccc4)CC3)n2)cc1	-6%	-4%
COc1cccc(OC)c1OCCOc1ccccc1OC(C)C	/	8%

Going on with the list:
SMILES	Vaccinia mCherry	VACV Venus inh
C#Cc1cccc(-n2nnc(C(C)=O)c2C)c1	-1%	-16%
CCOCCCNC(=O)CNC(=S)N(Cc1ccc(C)cc1)Cc1ccco1	-5%	-7%
Cc1cccc(-n2c(=O)c3c(c4cc(C)ccc4n3C)n(CC(=O)Nc3ccccc3C(F)(F)F)c2=O)c1	2%	0%
CCCCCn1c(CN2CCCCC2CC)nc2c1c(=O)n(C)c(=O)n2C (stereo not drawn)	1%	-5%
CCn1c(SCC(=O)Nc2ccc(N(C)C)cc2)nnc1-c1ccco1	2%	0%
CCCN1CCN(CCNC(=O)Nc2ccccc2OCC)CC1	-11%	-4%
N#CCN(C(=O)CSc1nnc(C2CC2)n1C1CC1)c1ccccc1	i	-20%
CC1(C(=O)NS(=O)(=O)c2ccc(Br)cc2)CCN1C(=O)CCC1CCCC1 (stereo not drawn)	4%	-9%
OC(COc1cccc(OCC(O)CN2CCCC2)c1)CN1CCCC1 (stereo not drawn)	i	9%
CCS(=O)(=O)N1CCN(c2ccc(S(=O)(=O)N3CCOCC3)cc2)CC1	-22%	-20%
CCCCn1nc(C(=O)N2CCN(S(=O)(=O)c3ccccc3)CC2)c2ccccc2c1=O	-11%	-17%
Cc1cccc(Cn2ccc(N)n2)c1	-4%	-4%
Cc1ccc2oc3c(c(=O)c2c1)C(c1ccc([N+](=O)[O-])cc1)N(CCCN1CCOCC1)C3=O (stereo not drawn)	-17%	-15%
N#Cc1c(-c2ccccc2F)cc(-c2cccnc2)nc1N	?	-18%
O=S(=O)(NCc1ccccc1)c1ccc2c(c1)OCCO2	-10%	0%
COc1ccccc1N1CCN(Cc2ccc3c(c2)OCO3)CC1	-22%	-10%
O=C1NC[C@@H](c2ccccc2)OC(=O)[C@H](Cc2ccc(F)cc2)C/C=C\C[C@H]1CC(=O)N(CCO)Cc1ccccc1	-30%	?
COc1ccc(/C=C2/C(=O)N(Cc3ccco3)C(=O)N(C(C)C)C2=O)cc1	i	-10%
Cc1ccc(CNC(=O)COC(=O)c2ccc(S(=O)(=O)N3CCOCC3)cc2)cc1	-17%	-18%
CCc1cc(C(=O)OC)c(NC(=O)CN2CCN(C(=O)C3CCCO3)CC2)s1 (stereo not drawn)	i	-6%
COc1ccc(N(C(=O)c2cccc([N+](=O)[O-])c2)S(=O)(=O)c2cccs2)cc1	i	-13%
CCc1c(C#N)c(SCCC(=O)Nc2ccc(C)cc2)nc2c1C(=O)CC(C)(C)C2	/	-22%
COc1ccc(C(CC(=O)N2CCCCC2)NC(=O)C(F)(F)F)cc1 (stereo not drawn)	i	5%
Cc1ccc(/C=C/C(=O)N2CCN(Cc3ccccc3)CC2)o1	-11%	-4%
CCc1nc2c(OCc3ccc(F)c(F)c3)cccn2c1N(C)C(=O)CC(C)C	-6%	-9%
CC1CN(C(=O)CSc2nnc(CNC(=O)c3ccc(S(=O)(=O)N(C)C)cc3)o2)CC(C)O1 (stereo not drawn)	i	-18%
Cc1cc(Cl)c2oc(C(=O)N(C)Cc3cc(C)[nH]n3)c(C)c2c1	-12%	-25%
CCOCc1[nH]c(=S)[nH]c(=O)c1Cc1ccc(OCC(C)C)cc1	-17%	2%
O=C(Cn1ncn2c(cc3ccccc32)c1=O)NCCCc1ccccc1	i	-20%
O=C(CNc1cccc([N+](=O)[O-])c1)N/N=C/c1ccc([N+](=O)[O-])o1	?	?
O=C(c1cccc(Cl)c1)N1CCN(C(=O)c2ccco2)CC1	/	-12%
O=C(CCC1CCN(C(=O)CC2=CCCCC2)CC1)NCc1ccc(F)cc1	i	-15%
O/N=C(\c1ccccc1)C(O)c1ccccc1 (stereo not drawn)	i	-1%
Cc1nnc(SCC(=O)N2CCCCC2)n1CC1CCCO1 (stereo not drawn)	-11%	1%
CC1(C)OC(=O)C2(Cc3ccccc3N3CCC(c4ccccc4)CC32)C(=O)O1 (stereo not drawn)	14%	-7%
CN(C)CC(C)(C)CNC(=O)C1CCN(Cc2ccccc2O)CC1	i	-12%
Cc1c(NC(=O)/C=C/c2cn(-c3ccccc3)nc2-c2ccccc2)c(=O)n(-c2ccccc2)n1C	/	?
Cc1cc(C)cc(-n2c(C)cc(C(=O)C(=O)Nc3nnc(C)s3)c2C)c1	-4%	5%
CC(C)N(C(=O)[C@H]1C[C@H](CC(=O)NC(C)(C)C)C(=O)N2CCc3c([nH]c4cc(CCC(=O)N(C)C)ccc34)[C@]12C)C(C)C	-2%	-1%
COc1cc2c(cc1OC)[C@@H]1C(=O)c3ccc4c(c3O[C@@H]1CO2)C[C@H](C(C)C)O4	-18%	-25%
Cc1ccccc1-c1nc(CN2CCCC(C(=O)NCCCN3CCOCC3)C2)c(C)o1 (stereo not drawn)	i	-6%
CCOC(=O)C1=C(c2ccc(OC)cc2)OC(N)=C(C#N)C1c1cccnc1 (stereo not drawn)	i	-18%
CC(C)C(=O)NNc1ccc(C(F)(F)F)cn1	i	-14%
CCC(C)c1ccc(OCC(=O)Nc2cccc3ccc(C)nc23)cc1 (stereo not drawn)	-14%	-10%
Cc1onc(-c2ccccc2Cl)c1C(=O)N1CCN(Cc2ccc3c(c2)OCO3)CC1	i	1%
CC(C)(C)c1ccc(C(=O)C2CC2)cc1	i	-8%
O=C1c2ccccc2C(=O)N1Cc1cnc(N2CCN(c3ccccc3)CC2)s1	-15%	?
O=C(NCCn1cc(SCc2ccccc2)c2ccccc21)c1c(F)cccc1F	?	?
COc1ccc(-c2noc(CSc3nc4ccccc4[nH]3)n2)cc1OC	-14%	-12%
CCC1=CCN(CCc2c(C)[nH]c3ccccc23)CC1	7%	-5%
CCOc1ccccc1CNCCNC(=O)c1nonc1N	-11%&-8%	2%&1%
Cc1ccsc1/C=N/Nc1cccc(C(=O)O)c1	-18%	-5%
O=C(O)Cc1c[nH]c2ccccc12	6%	2%
O=C(Nc1cccnc1)c1cnn2c(C(F)F)cc(C3CC3)nc12	/	-10%
S=C(NCc1ccco1)NCC1CCCO1 (stereo not drawn)	0%	-13%
COc1cc(NC(=O)C2=C(N3CCOCC3)/C(=C\c3ccc(N(C)C)cc3)CCC2)cc(OC)c1OC	?	?
CCOc1cc(C)nc(NCCc2ccc(OC)c(OC)c2)n1	i	-18%
COc1ccc(/C(O)=C2/C(=O)C(=O)N(CCN3CCOCC3)C2c2ccc(C)cc2)cc1 (stereo not drawn)	i	-10%
Cc1ccc(C)c(S(=O)(=O)NCc2ccc(C(=O)N3CC(C)OC(C)C3)cc2)c1 (stereo not drawn)	i	-11%
Cn1c(NCCO)nc2c1c(=O)n(Cc1cccc(F)c1)c(=O)n2C	-4%	8%
Remaining list, next part
SMILES	Vaccinia mCherry	VACV Venus inh
CC(O)C(NS(=O)(=O)c1ccc2ccccc2c1)C(=O)OCC(=O)Nc1ccccc1OC(F)F (stereo not drawn)	-2%	-16%
C[C@H](NC(=O)OCc1ccccc1)C(=O)NNC(=O)[C@H](Cc1ccccc1)NC(=O)OC(C)(C)C	i	-2%
COC(=O)c1ccc2c(c1)N(Cc1ccccc1)C(=O)c1ccccc1S2(=O)=O	-2%	-17%
CC1(C(=O)NS(=O)(=O)c2cccc(F)c2)CCN1C(=O)Cc1cccs1 (stereo not drawn)	i	-8%
COc1cc2nc(NCc3ccccc3)n3nc(-c4ccccc4)nc3c2cc1OC	i	-7%
O=C(CCC1N=C2c3ccccc3N=C(SCc3cccc(Cl)c3)N2C1=O)NCCc1ccccc1 (stereo not drawn)	-15%	-4%
C[C@@H](NC(=O)c1ncn2c1C(=O)NC[C@@H]2C)c1ccccc1	-24%	-9%
Cc1[nH]nc(SCC(=O)NCc2ccccc2)c1[N+](=O)[O-]	-9%	-3%
O=C(CSc1nc(O)cc(=O)n1-c1ccccc1)NC1CCCCC1	/	-16%
CCOc1cc(Cl)c(S(=O)(=O)n2cc(C)nc2CC)cc1Cl	-14%[7.34 µM]	-15%[7.34 µM]
COCCN1C=C2C(=O)C(C)(OC(=O)CCc3ccccc3)C(=O)C=C2C=C1c1ccc(C#N)cc1 (stereo not drawn)	0%	-8%
Cc1c(/C=C(\C#N)C(=O)Nc2cccc(Cl)c2)c2ccccc2n1Cc1ccccc1	-20%	11%
CC1=N/C(=C\c2ccc([N+](=O)[O-])cc2)C(=O)N1c1ccc(F)cc1F	-19%	-23%
CCOc1ccc(C(=O)NCc2cccnc2)cc1	-19%	-24%
CCOC(=O)C1CN(S(=O)(=O)c2ccc(C)cc2)C1	-9%	-10%
O=C(/C=C\c1ccccc1)NC1CC(=O)N(c2ccccc2)C1 (stereo not drawn)	-13%[7.34 µM]	-5%[7.34 µM]
O=[N+]([O-])c1ccc2c3n([n+]([O-])c2c1)CCN=C3c1ccc(Cl)cc1	?	?
Cn1c(SCC(=O)N2CCCC2=O)nc2ccccc2c1=O	i	-7%

4 records picked at random from those above:
SMILES	Vaccinia mCherry	VACV Venus inh
Cc1cccc(-n2c(=O)c3c(c4cc(C)ccc4n3C)n(CC(=O)Nc3ccccc3C(F)(F)F)c2=O)c1	2%	0%
C[C@H](NC(=O)OCc1ccccc1)C(=O)NNC(=O)[C@H](Cc1ccccc1)NC(=O)OC(C)(C)C	i	-2%
O=C(CCC1CCN(C(=O)CC2=CCCCC2)CC1)NCc1ccc(F)cc1	i	-15%
C#Cc1cccc(-n2nnc(C(C)=O)c2C)c1	-1%	-16%

Compounds were not picked by outcome; 0.88% or so of the library scored in one or more.
